Compound activity (PubChem)
Six1-Eya2 blk: blocks human Six1 binding to Eya2 | Q15475+O00167 | AlphaScreen GST-Six1/His-Eya2 binding, biochemical; stronger effect = lower value; control for the full effect not named in the record | activity change, % (no concentration beside the values) | 0.56% of 360,000 active | AID 651725; in the data active = activity change below about -65%; inconclusive = about -30% to -65%; inactive = above about -30%; further: on the % scale 0 is the no-effect control and ±100 the full control effect; compound concentration not given in the record
Target sequence (O00167 whole entry, looked up): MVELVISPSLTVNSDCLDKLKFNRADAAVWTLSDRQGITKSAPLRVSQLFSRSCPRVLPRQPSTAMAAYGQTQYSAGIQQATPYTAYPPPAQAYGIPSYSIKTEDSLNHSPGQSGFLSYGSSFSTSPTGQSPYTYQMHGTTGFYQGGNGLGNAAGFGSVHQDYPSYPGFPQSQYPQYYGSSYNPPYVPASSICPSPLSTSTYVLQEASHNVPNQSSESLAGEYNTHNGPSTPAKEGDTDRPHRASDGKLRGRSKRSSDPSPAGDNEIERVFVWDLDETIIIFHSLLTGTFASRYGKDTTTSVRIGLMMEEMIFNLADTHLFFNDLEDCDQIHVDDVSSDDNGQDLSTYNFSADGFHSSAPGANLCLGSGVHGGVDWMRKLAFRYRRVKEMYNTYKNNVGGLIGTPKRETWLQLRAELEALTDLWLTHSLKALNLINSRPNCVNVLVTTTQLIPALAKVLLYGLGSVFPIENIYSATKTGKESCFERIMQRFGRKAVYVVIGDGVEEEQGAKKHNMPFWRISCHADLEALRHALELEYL
Target sequence (Q15475 whole entry, looked up): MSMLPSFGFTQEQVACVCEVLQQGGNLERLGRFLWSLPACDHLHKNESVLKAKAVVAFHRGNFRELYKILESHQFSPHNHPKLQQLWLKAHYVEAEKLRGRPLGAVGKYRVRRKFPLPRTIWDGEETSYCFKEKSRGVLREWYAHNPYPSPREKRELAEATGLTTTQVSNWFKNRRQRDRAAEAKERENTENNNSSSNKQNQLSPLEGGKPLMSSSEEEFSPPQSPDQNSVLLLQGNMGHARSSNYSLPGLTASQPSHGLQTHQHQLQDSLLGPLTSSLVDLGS
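GST-Six1 + His-Eya2 (5X stock: 250/500 nM); Tris pH 8.0, 300 mM NaCl, 0.05% BSA, 0.02% Tween 20; GSH donor/Ni acceptor beads; 1 h 37 °C dark; AlphaScreen readout.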
D2 PAM: human D2 receptor positive allosteric modulation. DiscoveRx D2 beta-arrestin cells, luminescence, 90 min; 100% = 57 uM dopamine signal. potentiation, % (concentration not given with the values). 0.23% of 360,000 active; active = potentiation of 50% or more; inconclusive = 30% to 50%; inactive = 30% or less;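 further: compound concentration not given in the record; tested on top of an EC20 dose of dopamine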
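PathHunter beta-arrestin assay in DiscoveRx D2 cells. Compounds were added with an EC20 of dopamine (50 nM final) for 90 min at 37 deg C. Luminescence was read 1 h after detection reagent, with 57 uM dopamine as the EC100 control.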
D2 ag: human D2 receptor agonism in beta-arrestin assay; P14416; DiscoveRx PathHunter D2 beta-arrestin, luminescence, 90 min; 100% = 57 uM dopamine signal; activation, % (test concentration not listed); 0.084% of 360,000 active; AID 624465; in the data active = activation above about 40%; inconclusive = about 15% to 40%; inactive = below about 15%; further: compound concentration not given in the record; the text of the record calls up to 30% inactive
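DiscoveRx PathHunter D2 beta-arrestin cells (2,100/well) attached overnight, then compound-stimulated 90 min at 37 C in HBSS/10 mM HEPES/0.1% Tween-20 buffer; beta-galactosidase complementation read by luminescence after 1 h at ambient temperature. Dopamine 57 uM final (EC100) as control.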
TRPML1 agonist: agonists of human TRPML1 channel; Q9GZU1; TRPML1-expressing cells, Ca2+ dye fluorescence, FDSS; host cell line not named in the record; reference of the full effect not given here; activation, % (test concentration not listed); 0.12% of 410,000 active; in the data active = activation above about 50%; inconclusive = about 30% to 50%; inactive = below about 30%; further: 0% is about no effect; the text of the record puts the active cut at 80%
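Kinetic FDSS Ca2+ read in Tet-induced TRPML1-DL cells (ABD Ca8 dye plus quencher, 45-90 min RT loading): baseline, then compound, then 110 s agonist window; EC80 agonist 54-4 at 4uM final added afterwards for a 110 s antagonist window.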
PINK1 modulator: PINK1 expression modulation; PINK1 immunofluorescence, high-content cytometry, 24 h; Potency, µM (top dose mostly 76.6 µM), for inactives: top-dose activation (PINK1 increase), actives largely listed as activators; 0.2% of 410,000 active; active = well fitted activation curve with a large enough effect; inconclusive = small, poorly fitted or top-dose-only effect; inactive = flat fitted curve, though single readings scatter; cell line not stated here;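 further: potency means the concentration at half of the fitted maximal effect; % of control where 0% means no effect; nearly all actives have a fitted effect of over 65% in size; a mitochondrial uncoupler was the plate control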
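Stable cell line treated 24 h with compounds at 5 concentrations (CCCP controls), then fixed and immunostained for PINK1 plus nuclear and cell stains; PINK1 immunofluorescence quantified by laser-scanning microplate cytometry.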
CtBP-E1A blk: CtBP/E1A binding inhibition. AlphaScreen GST-E1A/His-CtBP binding, 1536-well; stronger effect = lower value; control for the full effect not named in the record. 0.49% of 340,000 active. activity change, % (concentration not given with the values). AID 651724; in the data active means activity change below about -65%; inconclusive means about -30% to -65%; inactive means above about -30%; further: on the % scale 0 is the no-effect control and ±100 the full control effect
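In 5 uL wells, 23 nL compound meets equimolar GST-E1A and His-CtBP (5X stock 125 nM each) for 2 h, 37 °C. Beads (5X, 50 ug/mL) then 1 h, 37 °C, dark.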
Numbers without * were called inactive; ? = inconclusive; . = not tested or not shown; & = joins results of further samples; [ ] = dose if it differs, or a comment. Outcome played no part in choosing rows, and some 1.3% of all compounds hit somewhere here.

SMILES	Six1-Eya2 blk	D2 PAM	D2 ag	TRPML1 agonist	PINK1 modulator	CtBP-E1A blk
Cc1ccccc1CN1CCc2cc([N+](=O)[O-])ccc21	-13.3	-6.0	-3.4	1.2	-0.1%	1.7
CCc1ccc2c(CN(C)Cc3ccc(OC(F)F)c(OC)c3)cc(=O)oc2c1	1.1	-8.9	-0.8	2.2	-1.1%	25.2
CN(C(=O)CSc1nc2ccccc2n1C)C1CCS(=O)(=O)C1 (configuration not stated)	7.8	5.6	-2.6	-0.9	-0.9%	.
O=C(OCC(=O)N1CCOCC1)c1cccc(S(=O)(=O)Nc2ccc(F)cc2)c1	0.2	-4.2	-3.6	-0.1	1.5%	.
O=C(NCC(c1cccs1)N1CCOCC1)c1cnc(Cl)c(Cl)c1 (configuration not stated)	1.1	-7.6	0.8	-0.6	5.6%	1.2
Cc1cc(C)c(S(=O)(=O)NCCn2c(C)cc3ccccc32)c(C)c1	-12.8	-2.2	2.0	1.0	19.7%	1.1
Cc1ccn2cc(-c3ccc(NS(=O)(=O)c4ccccc4)cc3)nc2c1	?	?	3.6	3.4	4.2%	-28.4
O=C(COC(=O)c1ccc2c(c1)OCO2)NC1CCCCC1	-0.4	-6.3	-0.5	-0.6	1.1%	3.9
C=CCC[C@@H](Cc1ccc(F)cc1)C(=O)OC[C@@H](NC(=O)[C@@H](CC=C)CC(=O)N[C@@H](CO)Cc1ccccc1)C(C)(C)C	-3.7	-13.0	-3.2	2.4	13.8%	-0.6
CCOc1ccc(OCCC(=O)OCC(=O)Nc2cc(C)nn2-c2ccccc2)cc1	6.0	1.4	-3.9	0.3	0.8%	-1.4
O=C(NCCN1CCN(C(=O)c2ccccc2Cl)CC1)C(=O)NCc1ccccc1	5.2	-5.0	-4.1	-0.7	0.6%	0.8
S=c1nc(-c2ccc(Br)cc2)[nH]c2ccccc12	2.0	-13.1	-1.0	.	3.1%	0.3
O=C(COC(=O)c1ccc(Cl)nc1)NCc1ccco1	-0.6	-5.3	-8.4	0.3	-1.6%	0.9
O=C(/C=C/c1ccc(Cl)cc1Cl)NCCSc1ccccc1	7.8	-18.2	-3.0	3.5	?	20.9
O=C(NC(=S)N1CCCCC1CO)c1cc(Br)ccc1Cl (configuration not stated)	34.4	-15.5	-3.5	0.5	-1.9%	-2.4

An excerpt of these results, as labelled records:
structure: S=c1nc(-c2ccc(Br)cc2)[nH]c2ccccc12
  Six1-Eya2 blk: 2.0
  D2 PAM: -13.1
  D2 ag: -1.0
  TRPML1 agonist: .
  PINK1 modulator: 3.1%
  CtBP-E1A blk: 0.3
structure: O=C(NCCN1CCN(C(=O)c2ccccc2Cl)CC1)C(=O)NCc1ccccc1
  Six1-Eya2 blk: 5.2
  D2 PAM: -5.0
  D2 ag: -4.1
  TRPML1 agonist: -0.7
  PINK1 modulator: 0.6%
  CtBP-E1A blk: 0.8

Ordered by value in D2 ag (descending): 3 of the compounds above.
| mol | Six1-Eya2 blk | D2 PAM | D2 ag | PINK1 modulator | CtBP-E1A blk |
| --- | --- | --- | --- | --- | --- |
| O=C(NCC(c1cccs1)N1CCOCC1)c1cnc(Cl)c(Cl)c1 (configuration not stated) | 1.1 | -7.6 | 0.8 | 5.6% | 1.2 |
| CCc1ccc2c(CN(C)Cc3ccc(OC(F)F)c(OC)c3)cc(=O)oc2c1 | 1.1 | -8.9 | -0.8 | -1.1% | 25.2 |
| O=C(NCCN1CCN(C(=O)c2ccccc2Cl)CC1)C(=O)NCc1ccccc1 | 5.2 | -5.0 | -4.1 | 0.6% | 0.8 |

(cont.)
SMILES	Six1-Eya2 blk	D2 PAM	D2 ag	TRPML1 agonist	PINK1 modulator	CtBP-E1A blk
COc1ccc2c(Cl)c(-c3nnc4n3CCCCC4)sc2c1	-7.0	-6.4	-2.8	0.8	-0.9%	0.9
Cc1ccccc1NC(=O)C1c2cccc[n+]2CC(=O)N1Cc1ccc2c(c1)OCO2 (configuration not stated)	0.2	-4.2	-3.2	0.7	0.4%	-6.1
CC1CCN(CCCNC(=O)Cn2ncc3c([nH]c4ccccc43)c2=O)CC1	-0.7	-37.5	-3.4	-0.5	1.3%	-11.6
O=c1c2cc(N3CCOCC3)ccc2[nH]c(=S)n1CCN1CCCC1	-3.1	-11.7	-1.7	-0.6	13.3%[38.3 µM]	-1.3
CC(=O)Nc1ccc(-c2nc3ccccc3c(=O)o2)cc1	-3.9	-2.6	2.9	-0.7	-1.3%	3.1
CCc1nnc2n1N=C(c1ccc(Cl)cc1Cl)CS2	-0.3	-11.1	-2.5	0.0	-0.3%	-10.0
CC(C)CNC(=O)Cn1c(=O)c2c(ncn2CC(C)C)n(Cc2ccccc2)c1=O	1.1	-0.9	-0.9	-0.8	0.8%	4.1
CCC(C)NC(=O)c1ccc(CN2CCc3ccccc3C2)cc1 (configuration not stated)	-2.1	-3.6	-1.5	-0.5	3.8%	8.6
CCOc1ccc(NC(=O)CN(C)C(=O)c2cc3c(s2)CCCCC3)cc1OCC	-3.6	18.0	-3.1	1.6	2.8%	-15.8
CCOc1ccc(CNC(=O)C2Cc3cc(S(=O)(=O)N4CCCCC4)ccc3N2C(C)=O)cc1 (configuration not stated)	-4.8	-7.3	-3.1	-0.4	0.4%	0.5
O=C(CCCCCCN1C(=O)c2ccccc2C1=O)N1CCC(c2ccccc2)C1 (configuration not stated)	-10.7	-7.5	-5.3	1.2	-0.5%	14.7
CC(=O)Nc1ccc(NS(=O)(=O)c2ccc(Cl)c(C(=O)O)c2)cc1	2.5	-1.0	-2.6	2.1	17.6%[38.3 µM]	6.3
CCCn1c(CCc2ccccc2)nnc1SCC(=O)N1CCOCC1	-2.4	4.6	-2.8	5.2	1.0%	-6.2
CC12CC3(C)CC(C)(C1)CC(C(=O)NC(=S)N1CCOCC1)(C2)C3	3.9	-13.2	1.0	1.1	.	10.0
CCOc1ccccc1N1CCN(C/C=C/c2ccc(N(C)C)cc2)CC1	-76.5*	-33.7	0.4	-0.2	1.5%	?
Cn1ccnc1SCC(=O)NC1CCCC1	0.0	0.8	5.0	-0.4	0.7%	0.0
CCOC(=O)c1sc2nc3c(cc2c1N)COC(C)(CC)C3 (configuration not stated)	14.9	-21.5	0.5	0.1	.	16.5
C[C@H](CO)N1C[C@H](C)[C@H](CN(C)C(=O)Nc2ccc(N3CCN(C)CC3)cc2)OCc2cnnn2CCCC1=O	20.9	-3.0	-9.3	0.1	2.7%	4.4
Cc1nnc(SCCn2c(Br)nc3c2c(=O)[nH]c(=O)n3C)s1	9.5	-5.3	-1.9	-0.9	-0.8%	1.7
Cc1cc(S(=O)(=O)N(Cc2ccc(C(C)C)cc2)CC2CCCO2)ccc1-n1cnnn1 (configuration not stated)	2.1	22.1	4.0	2.7	.	13.8
NC(=O)C(C1=CCCCC1)c1ccccc1 (configuration not stated)	3.5	-3.8	-2.3	1.5	4.5%	-3.1
COc1cccc2c1Oc1cc([N+](=O)[O-])cc(N(C)C(C)=O)c1C=C2	-11.4	1.0	5.3	2.3	3.9%	-9.2
Cc1c(C(=O)O)sc(=S)n1-c1ccc(Cl)cc1	-6.4	-0.7	-2.6	0.5	.	-12.6
COc1cccc(NC(=O)CN(C)C(=O)c2cc(-c3ccc(C)o3)nc3ccccc23)c1	-2.6	-1.8	9.9	-1.7	-0.8%	.
CC(=O)OC1CC(C)N(C(=O)c2ccccc2)c2ccc(C)cc21 (configuration not stated)	-2.7	2.9	-1.3	1.6	0.5%	-1.0
CCCc1ccc(-c2cc(C(=O)Nc3ccc([N+](=O)[O-])cn3)c3ccccc3n2)cc1	-20.7	-11.1	-3.9	0.0	1.9%	-2.1
COc1ccc(C(=O)Nc2cc3c(cc2N2CCCCC2)n(C)c(=O)n3C)cc1OC	-1.6	-0.8	-1.3	-0.9	5.4%	1.7
NS(=O)(=O)c1ccc(NC(=O)COC(=O)COc2cccc(C(F)(F)F)c2)cc1	6.1	-10.7	-2.0	-0.4	-1.1%	.
CN1CCC(NC(=O)c2cccs2)CC1	-2.3	-11.3	-4.2	-0.4	1.3%	1.7
CC(NC(=O)COC(=O)Cc1ccsc1)C1CC2CCC1C2 (configuration not stated)	1.5	-3.5	-0.1	1.3	-0.2%	15.1

Quoted at random: two compounds from above.
SMILES	Six1-Eya2 blk	D2 PAM	D2 ag	TRPML1 agonist	PINK1 modulator	CtBP-E1A blk
COc1cccc(NC(=O)CN(C)C(=O)c2cc(-c3ccc(C)o3)nc3ccccc23)c1	-2.6	-1.8	9.9	-1.7	-0.8%	.
CC(=O)OC1CC(C)N(C(=O)c2ccccc2)c2ccc(C)cc21 (configuration not stated)	-2.7	2.9	-1.3	1.6	0.5%	-1.0

Continuation:
SMILES	Six1-Eya2 blk	D2 PAM	D2 ag	TRPML1 agonist	PINK1 modulator	CtBP-E1A blk
Cc1cccc(N=C2SC(C)CN2C(=O)CN2C(=O)NC3(CCCC3)C2=O)c1 (configuration not stated)	-5.1	19.6	0.1	-0.6	4.1%	-8.1
CCNc1nc(-c2ccc(Cl)cc2)cs1	-3.4	-14.9	-3.1	-0.8	-0.9%	-1.2
CC(OC(=O)c1nsc(Cl)c1Cl)C(=O)NCc1ccco1 (configuration not stated)	5.1	3.4	0.8	-0.3	9.2%	0.1
Cc1ccc(N2C(=O)C3N=NN(CC(=O)N4N=C(c5ccccc5)CC4c4ccccc4)C3C2=O)cc1 (configuration not stated)	-7.0	-10.8	-2.4	0.0	3.3%	7.1
O=C(Nc1cccnc1)c1cc(S(=O)(=O)N2CCOCC2)ccc1Br	8.9	-15.6	-4.4	-0.3	0.8%	0.4
Cc1ccn2c(NC3CCCCC3)c(-c3cccc(SC4CCCCC4)c3)nc2c1	-1.2&-16.3	-0.6	3.4	-0.9&0.1	20µM*	4.5&-12.5
O=C(Cn1cc2c(n1)CCCCC2)NCc1ccccc1	0.4	-2.6	-8.3	-0.1	4.5%	4.3
CC(OC(=O)Cc1ccc(Br)cc1)C(=O)NC1CCCC1 (configuration not stated)	8.8	15.0	-3.6	0.3	-1.2%	0.5
C/C(=N/NC(=O)CNC(=O)c1ccccn1)c1ccc([N+](=O)[O-])cc1	-20.7	-1.6	3.4	0.0	1.6%	7.4
CCN(C(=O)CCc1ccccc1)C1CCCCC1	7.0	1.7	-3.0	1.6	0.1%	13.6
CC1CCCC(NC(=O)C2CCN(C(=O)Nc3ccccc3)CC2)C1C (configuration not stated)	-1.1	-8.6	2.1	-0.2	3.0%	-17.6
